Bfl-1 A1 inh = inhibitors of the anti-apoptotic protein A1, read as caspase activation. caspase activation, % (test concentration not listed). hit rate 0.066% among 330,000. MEF A1-2A-BIM cells, Caspase-Glo 3/7 luminescence, 3 h; percent of clofoctol response, vehicle zero. AID 2462;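 active = over half of replicate activation scores above 10%, or exactly half above 10 with the replicate mean above 10; inconclusive = replicate mean below 10 yet half the replicates above 10; inactive = over half of replicates below 10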;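 note: wells of about 30 µL received 50 nL stock; many hits fall short of the cut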
Ecoli growth = inhibitors of Escherichia coli growth | OD600, 23 h; stronger effect = lower value | OD600 absorbance (test concentration not listed) | hit rate 0.21% among 330,000 | AID 1053175;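 active = OD600 absorbance below the run mean of sample wells minus 3.6 SD, in any replicate, cut at about 0.56 in these data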;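 note: stock transfer was 300 nL into about 60 µL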
Beta cell apopt = beta cell apoptosis inhibition. INS-1E cytokine-induced death, ATP luminescence, 48 h; percent of positive-control rescue, neutral wells zero. protection from apoptosis, % (test concentration not listed). hit rate 0.8% among 300,000. AID 435005;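 active = all replicates at 75% or more, or half of them and the mean; inconclusive = half reach 75% but not the mean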;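 note: 0% = cytokine-treated negative control wells and 100% = positive control rescue; higher means more ATP so stronger rescue from cytokine killing; wells of about 40 µL received 100 nL stock; the first replicate is given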
UCH37 inh = blocks the human deubiquitinase UCH37; purified proteasome/UCH37, Ub-AMC cleavage fluorescence; inhibition, % (test concentration not listed); hit rate 0.33% among 330,000;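 active = mean of two replicates above 20%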;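 note: 0% = compound-free wells with enzyme and 100% = wells lacking proteasome; stock transfer was 100 nL into about 20 µL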
Target sequence (Q9Y5K5 whole entry, looked up): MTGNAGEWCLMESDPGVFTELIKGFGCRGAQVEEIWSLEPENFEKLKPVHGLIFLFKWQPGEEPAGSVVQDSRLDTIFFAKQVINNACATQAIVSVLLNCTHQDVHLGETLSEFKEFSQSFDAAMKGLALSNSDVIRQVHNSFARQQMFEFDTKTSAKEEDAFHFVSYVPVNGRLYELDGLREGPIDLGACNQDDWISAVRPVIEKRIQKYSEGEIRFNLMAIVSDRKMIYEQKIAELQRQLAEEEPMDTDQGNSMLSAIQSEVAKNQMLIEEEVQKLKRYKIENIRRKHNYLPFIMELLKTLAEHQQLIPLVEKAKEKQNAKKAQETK
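System: Proteasome-associated human UCH37 deubiquitinase; Input: 0.15 nM proteasome in added enzyme buffer; Also added: Ub-AMC substrate from 1 µM stock; Incubation: 30 min compound-proteasome preincubation then 25 min substrate reaction, room temperature; Detection: fluorescence, ex 355 nm, em 460 nm; Read-out: % inhibition of Ub-AMC cleavage fluorescence; Benchmarks: no-proteasome and no-compound wells.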
Ecoli rRNA inh = selective bacterial rRNA inhibition in E. coli. E. coli WT GFP vs humanized-ribosome RFP mutants, fluorescence, 24 h; stronger effect = lower value; DMSO median 0, no signal -100. GFP signal change (wild-type ribosome), % (no concentration beside the values). hit rate 1.6% among 350,000. AID 720706;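 active = significant combined selectivity score with lowered wild-type GFP, culture density cut under 30%, mutant RFP and density less affected; inactive = any of these conditions unmet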; note: one replicate is shown; some compounds called inactive have numbers as strong as hits
T cruzi repl = blocks replication of Trypanosoma cruzi. T. cruzi beta-gal in NIH3T3, luminescence, 90 h. inhibition, % (no concentration beside the values). hit rate 1.4% among 300,000. AID 1885;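 active = mean inhibition across valid replicates above about 55%, limit read from the data; inconclusive = mean below that limit but half or more replicates reach it; inactive = mean below it, under half of replicates reach it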;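 note: signal also drops with host cell toxicity which is not excluded here; 0% = plate median of DMSO wells and 100% = zero luminescence signal; higher percent means less beta-gal luminescence so fewer parasites; stock transfer was 50 nL into about 50 µL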
MLL AF4-AF9 inh = MLL-AF4/AF9 protein interaction inhibition; inhibition, % at 10 µM; hit rate 0.47% among 350,000; AlphaScreen, biotin-AF4 peptide binding to FLAG-AF9;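 active = every replicate reaching a set inhibition limit, whatever the replicate mean, cut at about 25% in these data; inconclusive = mean inhibition reaches that limit but some replicates miss it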;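 note: 0% = plate neutral control median and 100% = total signal loss; the record names both 10 and 1 µM as test concentration; the first replicate is given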
Target sequence (P42568 whole entry, looked up): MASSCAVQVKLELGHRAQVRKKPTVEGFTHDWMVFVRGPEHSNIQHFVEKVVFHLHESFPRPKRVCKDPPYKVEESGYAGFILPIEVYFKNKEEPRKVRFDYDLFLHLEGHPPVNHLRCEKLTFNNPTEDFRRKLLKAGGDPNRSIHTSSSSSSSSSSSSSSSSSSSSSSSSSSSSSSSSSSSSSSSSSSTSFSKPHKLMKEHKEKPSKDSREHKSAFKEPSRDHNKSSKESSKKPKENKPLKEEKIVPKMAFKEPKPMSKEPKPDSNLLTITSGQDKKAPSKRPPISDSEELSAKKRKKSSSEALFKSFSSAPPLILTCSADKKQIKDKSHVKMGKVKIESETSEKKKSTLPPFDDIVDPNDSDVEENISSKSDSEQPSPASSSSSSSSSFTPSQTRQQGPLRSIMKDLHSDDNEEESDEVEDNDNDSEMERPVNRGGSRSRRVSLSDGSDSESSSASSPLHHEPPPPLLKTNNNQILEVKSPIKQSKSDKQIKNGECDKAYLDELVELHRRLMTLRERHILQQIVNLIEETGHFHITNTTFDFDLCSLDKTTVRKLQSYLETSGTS
FGF22 binding = FGF22 (human) thermal shift binding; Q9HCT0; recombinant FGF22 thermal shift, SYPRO orange fluorescence; percent of sucrose octasulfate shift, DMSO zero; calls only at 9.99 µM; hit rate 1.5% among 340,000;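 active = melting point raised past a set limit in the mean and every replicate; inconclusive = no clear call; three in four hits are not shown here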
Target sequence (Q9HCT0 whole entry, looked up): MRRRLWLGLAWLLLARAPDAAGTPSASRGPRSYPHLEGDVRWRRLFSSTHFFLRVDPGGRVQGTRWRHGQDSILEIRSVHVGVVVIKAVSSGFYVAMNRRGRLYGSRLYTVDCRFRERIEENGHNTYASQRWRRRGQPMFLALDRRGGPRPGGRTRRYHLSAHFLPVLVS
Ecoli rRNA inh OD600 = further read-out of Ecoli rRNA inh, marked with its call; OD600 change, %; measured here: OD600 growth;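 optical density of the mix in the first replicate; 0 = DMSO median and -100 = no signal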
Ecoli rRNA inh RFP = also measured in Ecoli rRNA inh; calls as there; RFP signal change, %; measured here: RFP humanized mutant strains;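 first replicate; 0 = DMSO median and -100 = no signal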
Active calls of the source: *; i = inactive; ? = inconclusive; · = not tested or not shown; + = active, no number.

The line under a structure holds: Bfl-1 A1 inh	Ecoli growth	Beta cell apopt	UCH37 inh	Ecoli rRNA inh	Ecoli rRNA inh OD600	Ecoli rRNA inh RFP	T cruzi repl	MLL AF4-AF9 inh	FGF22 binding
1. CCOC(=O)c1ccc(NC(=O)CN2CCN(C(=O)c3ccco3)CC2)cc1
    0.4	0.68	0	2.4	2	7	2.5	-2	-5.3	i
2. CC1CC(O)(CC(O)(c2ccccc2)c2ccccc2)C(C)CN1C (centres undefined)
    -0.9	0.67	-2	2.6	11	1	3.3	-10	-2.8	i
3. O=C(Cn1cc(S(=O)(=O)N2CCN(c3ccccc3F)CC2)c2ccccc2c1=O)NCCCN1CCCCCC1
    -0.7	0.63	-3	0.5	-7	-15	6.0	40	2.7	i
4. Cn1cc(S(=O)(=O)N2CCCC2)cc1C(=O)O
    -0.8	0.68	1	1.5	25	18	7.8	·	-0.8	i
5. Cc1cc(C)c2nc(N3CCN(C(=O)c4cccs4)CC3)sc2c1
    -0.3	0.67	-1	1.5	-10	-28	2.4	9	-11	i
6. Cc1cccc(Nc2ccc(NCc3ccccc3)nn2)c1
    0.2	0.59	-2	-1.6	-36	-54	40	12	0.6	i
7. O=[N+]([O-])c1ccc2nc(CCCO)[nH]c2c1
    -0.3	0.68	2	5.9	8	14	0.8	-2	-0.1	i
8. O=C(c1ccc[nH]c1=S)N1CCN(S(=O)(=O)c2ccc(Br)cc2Cl)CC1
    1.0	0.64	0	7.3	3	2	0.5	7	-5.3	i
9. CSc1ccccc1NC(=O)c1cccs1
    0.5	0.72	·	1.7	·	·	·	3	·	·
10. COc1ncnc2c1N[C@@](C)(O)c1c(F)c(F)c(F)c(F)c1S2
    -0.2	0.83	0	3.9	·	·	·	-15	·	·
11. CCCCn1c(N)c(N(CC(C)C)C(=O)CN(C)S(=O)(=O)c2ccc(NC(C)=O)cc2)c(=O)[nH]c1=O
    0.2	0.71	3	1.4	-2	-4	0.3	-4	-0.4	i
12. Cn1cnc2c(N/N=C/c3cccs3)ncnc21
    -4.0	·	-3	·	6	8	2.5	-11	1.7	i
13. Cc1nc2c(=O)n(C)c(=O)n(C)c2nc1Cl
    0.8	0.69	-9	-12	-15	6	-8.0	-3	-1.2	i
14. O=C(N/N=C\c1cc(Br)cs1)c1ccncc1
    -0.6	·	1	·	-4	1	-0.1	1	·	i
15. O=C1C(Cl)=C(N2CCN(Cc3ccccc3)CC2)C(=O)N1Cc1ccccc1
    -0.3	0.74	2	3.5	·	·	·	33	·	·
16. N#Cc1cc2c(nc1SCc1cccc(Cl)c1)CCCCC2
    0.0	0.73	·	2.9	·	·	·	-12	·	·
17. CCc1nc(CNC(=O)c2cc(OC)c(OC)c(OC)c2)no1
    0.0	0.79	·	-1.4	·	·	·	-9	·	·
18. COc1ccc(C(=O)O)cc1S(=O)(=O)NCCCN1CCCC1=O
    -0.2	0.73	2	0.7	·	·	·	-2	·	·
19. CCOC(=O)/C=C1\SCC(=O)N1CC(=O)NCCc1ccc(F)cc1
    1.0	0.67	-3	0.1	3	3	6.6	-2	1.0	i
20. O=C(NC(C(=O)c1ccccc1)N1CCOCC1)c1cccs1 (centres undefined)
    0.0	0.67	-3	-0.2	·	·	·	-5	·	·
21. Cc1ccc(-c2noc(COC(=O)c3ccco3)n2)cc1
    -6.5	0.7	-3	-0.2	·	·	·	·	1.4	i
22. C/C(=N/NC(=O)CNC(=O)c1cccnc1)c1ccco1
    1.6	·	-4	·	·	·	·	0	3.5	i
23. O=[N+]([O-])c1ccc(-c2csc(N/N=C/c3cccnc3)n2)cc1
    -2.4	·	4	·	8	7	-2.1	24	2.2	i
24. O=S(=O)(c1ccc(NC(=S)Nc2ccc3c(c2)OCO3)cc1)N1CCOCC1
    -0.4	0.67	-13	3.0	·	·	·	-2	·	·
25. CC(=O)c1ccc(OCC(O)CN2CCN(Cc3ccccc3)CC2)cc1 (centres undefined)
    -0.1	0.75	-3	5.7	·	·	·	19	·	·
26. CC1CCCCN1S(=O)(=O)c1cn(C)c(=O)n(C)c1=O (centres undefined)
    0.1	0.7	-1	1.4	4	9	-1.4	-10	-1.3	i
27. Cc1ccccc1-c1nc2c(s1)CCc1onc(-c3cccc([N+](=O)[O-])c3)c1-2
    0.8	0.69	0	0.5	-1	8	1.7	-24	0.4	i
28. O=C(Cc1cccc2ccccc12)N1CCN(c2ncccn2)CC1
    1.4	0.64	-3	1.5	16	13	1.7	-12	-2.1	i
29. COc1cccc(CN2C(=O)NC3(CCCCCC3)C2=O)c1
    1.8	0.71	-4	7.9	5	-5	2.0	3	1.6	i
30. CC(C)OCCCNC(=O)C1CC(=O)N(C2CCCCCCC2)C1 (centres undefined)
    1.1	0.68	-2	1.4	·	·	·	1	·	·
31. COc1cc2[nH]c(=O)n(CCC(=O)NCc3cccnc3)c(=O)c2cc1OC
    -0.6	0.7	2	-3.3	·	·	·	-2	·	·
32. O=C(NCc1ccco1)c1cc(-c2ccc(F)cc2)on1
    -2.0	0.74	-2	1.2	·	·	·	-7	·	·
33. O=C(CSc1nc2cc(Cl)ccc2o1)NCCc1ccccc1
    -0.5	0.69	-14	6.6	·	·	·	-6	·	·
34. Cc1ccc(-n2ncc(C(=O)NC3CC3)c2C2CCN(C(=O)OC(C)(C)C)CC2)cc1
    0.2	0.68	·	1.3	-14	-11	1.0	-4	0.7	i
35. CCCCNC(=O)CSc1nc2ccc(NC(=O)CSc3nnc(COc4ccccc4C)n3C)cc2s1
    0.3	0.76	4	-1.7	·	·	·	19	·	·
36. COc1ccc(NC(=O)c2nc(C)n(-c3ccc([N+](=O)[O-])cc3)n2)cc1
    0.6	0.69	-4	2.7	7	5	-0.9	25	0.3	·
37. CCC(=O)N1N=C(c2cccs2)CC1c1ccc(OC)cc1 (centres undefined)
    -1.1	0.7	-9	-5.7	-1	2	-2.5	3	12	i
38. O=C(Nc1oc2ccccc2c(=O)c1-c1ccc(Cl)cc1)c1ccco1
    1.1	0.64	1	8.4	4	0	4.1	-11	-0.5	i
39. CN(C(=O)CSc1nnc(-c2cccnc2)o1)C1CCCCC1
    -0.2	0.68	-9	2.5	2	8	1.5	·	-6.7	i
40. CCN(CC(=O)Nc1ccccc1C(F)(F)F)C(=O)CCc1nc2sc3c(c2c(=O)[nH]1)CCCC3
    0.0	0.72	·	-1.1	4	8	6.3	8	0.9	i
41. CC1CCN(CCCNC(=O)C2CCCN(c3ncnc4c3nc3n4CCCCC3)C2)CC1 (centres undefined)
    -0.3	0.68	4	0.3	2	4	-2.0	7	2.4	i
42. CCc1ccc(OCC(=O)N/N=C(\C)c2ccccc2OC(F)F)cc1
    -0.2	·	·	·	-8	-10	-1.5	-2	-0.1	·
43. COC(=O)CNC(=O)c1cc(-c2ccncc2)nc2ccccc12
    -0.7	0.62	4	1.4	6	-4	-1.2	-15	1.1	i
44. C=CCNC(=O)NC(=O)COC(=O)CNS(=O)(=O)c1ccc(F)c(F)c1F
    0.4	0.71	3	0.9	21	13	4.1	-15	0.8	i
45. COc1ccc(CCNC(=O)NC2CCCCC2)cc1
    -0.5	0.73	-4	4.3	·	·	·	-9	·	·
46. O=C(CN1CCN(c2ccc(C(F)(F)F)cn2)CC1)Nc1ccc2c(c1)OCO2
    0.7	0.67	2	6.2	4	3	-0.7	-5	-5.5	i
47. COc1ccc2[nH]c3nc(SC(C)C)nnc3c2c1
    0.6	0.76	0	-3.3	·	·	·	5	·	·
48. C=C(C)C(=O)Nc1cccnc1Oc1ccc(F)cc1
    -0.3	0.68	-1	2.9	·	·	·	-19	-3.3	i
49. Cc1ccc(S(=O)(=O)NC(CC(=O)O)c2ccc(F)cc2)cc1 (centres undefined)
    -1.0	·	-7	·	-6	3	-1.3	-12	-1.5	i
50. COc1ccc(C(=O)OCn2nnc3ccccc3c2=O)cc1[N+](=O)[O-]
    1.0	0.7	-1	3.9	-13	-12	-2.2	-10	3.2	i
51. CCCOC(=O)c1ccc(Oc2cn[nH]c2-c2ccc(O)cc2O)cc1
    0.4	0.63	-3	8.7	-58	-83	-27	-11	1.6	+
52. O=C(CSc1n[nH]c(=O)n1Cc1ccccc1)Nc1ccc(F)c(F)c1F
    0.6	0.68	-4	2.3	-4	-5	0.1	-11	-2.6	i
53. Cc1ccc(NC(=O)COC(=O)Cc2cccs2)cc1S(=O)(=O)N1CCOCC1
    0.6	0.69	3	3.8	6	3	2.1	-8	-2.3	i
54. CCCC(=O)NC(c1ccc(Cl)cc1)c1ccc2cccnc2c1O (centres undefined)
    1.0	·	113*	·	16	-2	7.5	65*	8.9	i
55. CN(CC(=O)N1CCN(Cc2ccccc2)CC1)S(=O)(=O)c1cccc2nsnc12
    0.5	0.69	0	4.0	9	14	-3.1	4	-2.3	i
56. COc1cccc(/C=C2/SC(=O)N(CC(=O)N3CCc4ccccc4C3)C2=O)c1OCC(=O)O
    1.1	0.7	2	9.0	·	·	·	6	·	·
57. CC(C)(C)c1ccc(/C=C/C(=O)c2ccc(NC3=NCCCS3)cc2)cc1
    -0.3	·	45	3.3	-20	-27	3.5	58*	12	·
58. O=C(Nc1ccc(NC(=O)c2ccco2)c(Cl)c1)c1ccccc1
    -6.3	0.71	-3	-18	12	3	-1.9	-6	-2.5	i
59. CCc1ccccc1S(=O)(=O)Cc1ccc(C(=O)N2CCN(c3ccccc3OC)CC2)o1
    ·	0.75	·	5.5	-11	-12	1.0	-3	-1.5	i
60. CCn1c(=NC(=O)c2ccc(S(=O)(=O)N(C)C)cc2)sc2cccc(OC)c21
    1.3	0.68	49	-430	6	5	-4.0	?	-2.9	i

New compounds follow:
The line under a structure holds: Bfl-1 A1 inh	Ecoli growth	Beta cell apopt	UCH37 inh	Ecoli rRNA inh	Ecoli rRNA inh OD600	Ecoli rRNA inh RFP	T cruzi repl	MLL AF4-AF9 inh	FGF22 binding
61. Cc1cccc(NC(=O)c2cc3ccccc3c(=O)o2)n1
    -14	0.66	5	0.4	9	-2	-1.1	8	1.3	i
62. CC(OC(=O)c1ccc(=O)n(Cc2ccccc2)n1)C(=O)Nc1cccc(Cl)c1 (centres undefined)
    -0.3	0.63	-3	4.4	-5	5	5.8	-2	-0.1	i
63. O=C(c1ccc(Cn2c(=S)[nH]c3ccc(N4CCOCC4)cc3c2=O)cc1)N1CCC(N2CCCCC2)CC1
    -0.2	0.69	-7	-6.2	14	10	0.1	10	7.6	i
64. COc1ccc(CC(=O)N2CCCc3ccccc32)cc1
    2.3	0.71	-3	4.8	·	·	·	-4	·	·
65. CCC(CO)Oc1cc(NCc2ccncc2)c2ncn(C(C)C)c2c1 (centres undefined)
    -0.9	0.67	-4	3.7	-5	-2	-10	·	4.4	i
66. Nc1nc(-c2ccc3c(c2)CCO3)cs1
    -1.1	0.71	-9	3.0	8	1	21	-12	3.3	i
67. COc1ccccc1-n1cc(-c2ccc([N+](=O)[O-])cc2)[nH]c1=S
    0.5	0.77	-2	13	15	3	1.2	-10	-3.6	i

Bioassay records: PubChem BioAssay, several laboratories

Only part of the results is shown; the hit share may differ from the screen's.
